# Compound activity: PubChem, Broad Institute
# T. gondii: T. gondii ME49Luc in HeLa cells, luciferase assay, 72 h, no IFN-y (AID 1259421) | activity change, negative = inhibition, % | T. gondii ME49Luc in HeLa, luciferase, 72 h, no IFN-y; active compounds read low; reference of the scale and settings of repeat entries not given here; many of its hits are not listed in these tables | 6,400 tested, 9.6% active;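 active means activity change below -70%; inconclusive means fit judged invalid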;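 further: about 20 µM from a 10 mM stock diluted 500-fold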
# * = called active by the depositor; ? = inconclusive; & = joins results of further samples; ! = a repeat was not active. This is a subset; count on the stated rates, not on these rows.
mol	T. gondii
CCC(c1ccccc1)c1c(O)c2ccccc2oc1=O (stereo not drawn)	-35
C=CCNC(=O)c1cc([N+](=O)[O-])cc2c(=O)[nH]c(Nc3ccc(Cl)c(Cl)c3)nc12	-7&3
c1ccc(C(NCCNC(c2ccccc2)c2ccccc2)c2ccccc2)cc1	-5&-25
COc1cc(O)ccc1C(C)=O	-7
Nc1ccc(S(=O)(=O)c2ccc(N)cc2)cc1	-14&-1
O=C(O)Cc1nn(Cc2ccc(Br)cc2F)c(=O)c2ccccc12	-6
CC(CCc1ccc(O)cc1)NCC(O)c1ccc(O)cc1 (stereo not drawn)	5
CC(C)CCNC(=O)[C@H](CC(C)C)NC(=O)[C@H]1O[C@@H]1C(=O)O	13&24
Oc1cccc(-c2c3nc(c(-c4cccc(O)c4)c4ccc([nH]4)c(-c4cccc(O)c4)c4nc(c(-c5cccc(O)c5)c5ccc2[nH]5)C=C4)C=C3)c1	8
CC[C@H](C(=O)N1CCCC[C@H]1C(=O)O[C@H](CCc1ccc(OC)c(OC)c1)c1cccc(OCC(=O)NCCNC(=O)COc2cccc([C@@H](CCc3ccc(OC)c(OC)c3)OC(=O)[C@@H]3CCCCN3C(=O)[C@@H](CC)c3cc(OC)c(OC)c(OC)c3)c2)c1)c1cc(OC)c(OC)c(OC)c1	5

# Given field by field: part of the list above.
SMILES: O=C(O)Cc1nn(Cc2ccc(Br)cc2F)c(=O)c2ccccc12
  T. gondii: -6
SMILES: CC(C)CCNC(=O)[C@H](CC(C)C)NC(=O)[C@H]1O[C@@H]1C(=O)O
  T. gondii: 13&24

# Continued.
mol	T. gondii
Cl/C(=C\n1cncn1)c1ccc(Cl)cc1Cl	-12
CCC(CC)(CC(=O)Nc1cccc(/C=C/c2nc(C3CCC3)cs2)c1)C(=O)O	42
O=C(Nc1ccc(C(F)(F)F)cn1)N1CCN(c2ncccc2C(F)(F)F)CC1	15
CCOC(=O)[C@H](CCc1ccccc1)N[C@H]1CCCN2CCC[C@@H](C(=O)O)N2C1=O	0
COC(=O)C1[C@H]2C[C@H]3c4[nH]c5ccccc5c4CCN3C[C@@H]2CC[C@@H]1O (stereo partly drawn)	-4
O=C(O)c1cc(Oc2ccc([N+](=O)[O-])cc2)cc(Oc2ccc([N+](=O)[O-])cc2)c1	5&5
Cc1ccc(Sc2cncc3sc(C(N)=O)cc23)cc1	-1&13
Oc1c(Br)cc(Br)c2cccnc12	-63
O=C(/C=C\n1cnc(-c2cc(C(F)(F)F)cc(C(F)(F)F)c2)n1)N1CC(F)(F)C1	-81*
N#CC(c1ccnc(OCc2ccc(CN3CCOCC3)cc2)n1)c1nc2ccccc2s1 (stereo not drawn)	-29
CC(=O)O[C@H]1C[C@@H](OC(C)=O)C(C)(C)C2CC(=O)[C@]3(C)C(CC[C@@]4(C)[C@H](C(=O)O)OC(=O)C5OC543)[C@]21C (stereo partly drawn)	0
CO[C@H]1C=CO[C@@]2(C)Oc3c(C)c(O)c4c(O)c(c5c(c4c3C2=O)NC2(CCN(CC(C)C)CC2)N=5)=NC(=O)/C(C)=C\C=C/[C@H](C)[C@H](O)[C@@H](C)[C@@H](O)[C@@H](C)[C@H](OC(C)=O)[C@@H]1C	-31
COC(=O)CCSCc1ccc(-c2onc(C)c2NC(=O)OC(C)c2ccccc2Cl)cc1 (stereo not drawn)	7
CN(Cc1ccccc1)C(=O)[C@H](Cc1ccc2ccccc2c1)NC(=O)[C@@H]1C[C@@H](O)CN1C(=O)c1cn(C)c2ccccc12	-7&-1
CC(=O)Nc1cccc(O)c1	9
CC(C)S(=O)(=O)NC[C@H](C)c1ccc(-c2ccc(CCNS(C)(=O)=O)cc2)cc1	9
Cc1cccc(N(C)C(=S)Oc2ccc3ccccc3c2)c1	74&75
CC(=O)SCCC(=O)N1C(C)CCCC1C(=O)O (stereo not drawn)	20
CC(=O)Oc1c(C)cccc1C(=O)O	13
O=C(O)c1ccccc1S	14
CC(=O)c1ccc(O)c(C(N)=O)c1	8
CCc1cc(Cl)c(OC)c(C(=O)NCC2CCCN2CC)c1O (stereo not drawn)	0
CCCCCCN(CCCCCC)C(=O)Cc1c(-c2ccc(Cl)cc2)[nH]c2ccc(Cl)cc12	8&51
CCCOc1ccc(S(=O)(=O)N2CCN(CCO)CC2)cc1-c1nc2c(CCC)cn(CC)c2c(=O)[nH]1	0
CCCCCCCCCc1ccc(OCCOCCOCCOCCOCCOCCOCCOCCOCCO)cc1	-73*
CCCn1c(=O)c2[nH]c(-c3ccc(OCC(=O)Nc4ccc(C#N)cc4)cc3)nc2n(CCC)c1=O	-5
CCC[C@@]1(CCc2ccccc2)CC(=O)C([C@H](CC)c2cccc(NS(=O)(=O)c3ccc(C(F)(F)F)cn3)c2)C(=O)O1 (stereo partly drawn)	10
O=c1[nH]c2cc([N+](=O)[O-])c([N+](=O)[O-])cc2[nH]c1=O	5&6&17
CCCCCCCCNC(=O)C(Cc1ccc(OCc2ccncc2)cc1)NC(=O)C1CCC(CN)CC1 (stereo not drawn)	20
CC(C)C[C@H](NC(=O)[C@H](CC(N)=O)NC(=O)[C@@H](NC(=O)[C@@H](N)CCC(=O)O)C(C)C)[C@@H](O)C[C@@H](C)C(=O)N[C@@H](C)C(=O)N[C@@H](CCC(=O)O)C(=O)N[C@@H](Cc1ccccc1)C(=O)O	3
COc1c2c(cc3occ(-c4ccc5c(c4)OCO5)c(=O)c13)OC(C)(C)C=C2	-31
O=C1NN(C(=O)Nc2ccc(Br)cc2)[C@@H](c2ccccc2)[C@@H]1c1ccccc1	33
CC1(C)SC2C(NC(=O)[C@H](NC(=O)N3CCNC3=O)c3ccccc3)C(=O)N2C1C(=O)O (stereo partly drawn)	34
COc1ccc([C@@H]2Sc3ccccc3NC(=O)[C@@H]2O)cc1	12
CCC(CC)(NC(=O)C(C)C)C(=O)N[C@@H](CCCN=C(N)N)C(=O)NC1(C(=O)NC(c2ccc(F)cc2)c2ccc(F)cc2)CCCC1	13
CCOC(=O)CCC(=O)O[C@H]1[C@H](O[C@@H]2[C@@H](C)[C@H](O[C@H]3C[C@@](C)(OC)[C@@H](O)[C@H](C)O3)[C@@H](C)C(=O)O[C@H](CC)[C@@](C)(O)[C@H](O)[C@@H](C)C(=O)[C@H](C)C[C@@]2(C)O)O[C@H](C)C[C@@H]1N(C)C	4
COc1cccc(-c2ccc(NC(=O)C3=C(C(=O)O)CCC3)c(F)c2)c1	357
NCCc1ccn[nH]1	8
CC(O)COC[C@H]1O[C@@H]2O[C@H]3[C@H](O)[C@@H](O)[C@@H](O[C@H]4[C@H](O)[C@@H](O)[C@@H](O[C@H]5[C@H](O)[C@@H](O)[C@@H](O[C@H]6[C@H](O)[C@@H](O)[C@@H](O[C@H]7[C@H](O)[C@@H](O)[C@@H](O[C@H]8[C@H](O)[C@@H](O)[C@@H](O[C@H]1[C@H](O)[C@H]2O)O[C@@H]8COCC(C)O)O[C@@H]7COCC(C)O)O[C@@H]6COCC(C)O)O[C@@H]5COCC(C)O)O[C@@H]4COCC(C)O)O[C@@H]3COCC(C)O (stereo partly drawn)	10
CCn1cc(C(=O)O)c(=O)c2cnc(N3CCCC3)nc21	8&1&20
C[C@]12CCc3occc3C1CC[C@@]13C[C@@H](CCC12)[C@@](O)(CO)C3 (stereo partly drawn)	-14
CC(C)NCC(O)c1ccc2ccccc2c1 (stereo not drawn)	-8&8
CCCCC/C=C\C/C=C\CCCCCCCC(=O)NCCCC(=O)O	8
C=CCc1cccc(/C=N/NC(=O)CN2CCN(Cc3ccccc3)CC2)c1O	-77*!
C=C[C@@](C)(O)CCC1C(=C)CCC2[C@@](C)(CO)CCC[C@]12C (stereo partly drawn)	13
COC[C@H](NC(=O)c1cnc(C)s1)C(=O)N[C@@H](COC)C(=O)N[C@@H](Cc1ccccc1)C(=O)C1(C)CO1 (stereo partly drawn)	-89*
Cc1nnsc1C(=O)Nc1ccc(-n2nc(C(F)(F)F)cc2C(F)(F)F)cc1	-80*
COc1cc(Br)c(S(=O)(=O)Nc2ccc(Cl)c(O[C@@H]3CCN(C)C3)c2)cc1OC	6
Cc1cc(C)c(N(Cc2ccccc2)S(=O)(=O)c2ccc(OCCNC(=O)c3cc4ccccc4o3)cc2)c(C(=O)NO)c1	?
CCCCCCCCCCCCCCCCCC(=O)OCC(O)CO (stereo not drawn)	6

# (more compounds)
mol	T. gondii
C[C@@H]1C(=O)O[C@H]2[C@H](O)C34[C@H]5C[C@@H](C(C)(C)C)[C@]36[C@@H](OC(=O)[C@@H]6O)O[C@]4(C(=O)O5)[C@@]12O (stereo partly drawn)	5
COc1ccc(CCCn2ncc3c2nc(N)n2nc(-c4ccco4)nc32)cc1	-12
CCCCCCCCCCCCC/C=C/[C@@H](O)[C@H](COC1OC(CO)C(OC2OC(CO)C(OC3OC(CO)C(O)C(OC4OC(CO)C(O)C(O)C4O)C3NC(C)=O)C(OC3(C(=O)O)CC(O)C(NC(C)=O)C(C(O)C(O)CO)O3)C2O)C(O)C1O)NC(=O)CCCCCCCCCCCCCCCCC (stereo partly drawn)	8
Cc1c(-c2cnccn2)ssc1=S	-7&-3
CN(C)CC[C@H](CSc1ccccc1)Nc1ccc(S(=O)(=O)NC(=O)c2ccc(N3CCN(Cc4ccccc4-c4ccc(Cl)cc4)CC3)cc2)cc1[N+](=O)[O-]	-28
C=CC1=C(C(=O)O)N2C(=O)[C@@H](NC(=O)/C(=N\OCC(=O)O)c3csc(N)n3)[C@H]2SC1	19&13
CCCCCCCCCCCCCCCCCCCCCCCCC(=O)O	11
O=C(NCCCN1CCCCCC1)C(c1ccccc1)C1CCCCC1 (stereo not drawn)	3&7
Cc1c(C(N)=O)cc([N+](=O)[O-])cc1[N+](=O)[O-]	9&5
CCCn1c(=O)[nH]c(=O)c2[nH]cnc21	7
CN1CCN(C2=Cc3ccccc3Oc3ccc(Cl)cc32)CC1	15&-2
CC[C@@H]1/C=C(\C)C[C@H](C)C[C@H](OC)[C@H]2O[C@@](O)(C(=O)C(=O)N3CCCC[C@H]3C(=O)O[C@H](/C(C)=C/[C@@H]3CC[C@H](Cl)[C@H](OC)C3)[C@H](C)[C@@H](O)CC1=O)[C@H](C)C[C@@H]2OC	-68
CC(C)n1nnc2cc(C(=O)O)ccc21	13&9
CC(C)C(=O)OCC(=O)[C@@]12O[C@H](C3CCCCC3)O[C@@H]1C[C@H]1[C@@H]3CCC4=CC(=O)C=C[C@]4(C)[C@H]3[C@@H](O)C[C@@]12C	-66
COc1ccc(-c2cc(=O)c3c(O)c(OC)c(O[C@H]4O[C@H](CO[C@@H]5O[C@@H](C)[C@H](O)[C@@H](O)[C@H]5O)[C@@H](O)[C@H](O)[C@H]4O)cc3o2)cc1	15
C[C@H](NC(=O)C(C)(C)Oc1ccc(C(F)(F)F)cn1)[C@@H](Cc1ccc(Cl)cc1)c1cccc(C#N)c1	-18
O=C[C@H](O)[C@@H](O)[C@H](O)CO	8
COc1ccc(C(=C2C(=O)Nc3ccccc32)c2ccc(OC)cc2)cc1	14
C[C@]12CC[C@H](O)CC1=CC[C@@H]1[C@@H]2CC[C@]2(C)C(c3cccnc3)=CC[C@@H]12	5&-2
COc1cc(O)c(C(=O)c2ccccc2)cc1O	6

# Sorted by heavy-atom count (lowest first): part of the list above
mol	T. gondii
O=C[C@H](O)[C@@H](O)[C@H](O)CO	8
CC(C)n1nnc2cc(C(=O)O)ccc21	13&9
COc1cc(O)c(C(=O)c2ccccc2)cc1O	6
C[C@]12CC[C@H](O)CC1=CC[C@@H]1[C@@H]2CC[C@]2(C)C(c3cccnc3)=CC[C@@H]12	5&-2
C[C@H](NC(=O)C(C)(C)Oc1ccc(C(F)(F)F)cn1)[C@@H](Cc1ccc(Cl)cc1)c1cccc(C#N)c1	-18
CC(C)C(=O)OCC(=O)[C@@]12O[C@H](C3CCCCC3)O[C@@H]1C[C@H]1[C@@H]3CCC4=CC(=O)C=C[C@]4(C)[C@H]3[C@@H](O)C[C@@]12C	-66
COc1ccc(-c2cc(=O)c3c(O)c(OC)c(O[C@H]4O[C@H](CO[C@@H]5O[C@@H](C)[C@H](O)[C@@H](O)[C@H]5O)[C@@H](O)[C@H](O)[C@H]4O)cc3o2)cc1	15

# Continued.
mol	T. gondii
CCC(C(=O)O)c1ccc(N2Cc3ccccc3C2=O)cc1 (stereo not drawn)	122
CC(C)=CCOc1ccc(/C=C/C(=O)c2ccc(OCC=C(C)C)cc2OCC(=O)O)cc1	49
CC(C)(C)C(=O)OCOC(=O)[C@@H]1N2C(=O)[C@@H](N=CN3CCCCCC3)[C@H]2SC1(C)C	3
O=C(Nc1nc2cccc(-c3ccc(CN4CCS(=O)(=O)CC4)cc3)n2n1)C1CC1	25
COc1ccc(Br)cc1S(=O)(=O)NC(=O)/C=C/c1ccccc1Cc1ccc2ccccc2c1	-29
CCn1c2ccccc2c2cc(Nc3ccnc(NCCCN4CCOCC4)n3)ccc21	-54
C[C@H](NC(=O)[C@@H](O)c1cc(F)cc(F)c1)C(=O)N[C@@H]1C(=O)N(C)c2ccccc2-c2ccccc21	27
COc1ccc(CC(=O)NC(/N=C(\NC#N)Nc2cccc3ncccc23)C(C)(C)C)cc1OC (stereo not drawn)	-5
CCOC(=O)c1c(C)[nH]c2ccc3c(c12)CN1CCc2cc(OC)ccc2C1O3 (stereo not drawn)	6
COc1ccc(C(=O)N2CCCc3cc(C4=NNC(=O)SC4C)ccc32)cc1OC (stereo not drawn)	-42
C=CC(=O)NCc1ccccc1	11
CC(C)CCCC(C)[C@H]1CCC2C3C(=O)C=C4C[C@@H](O)CC[C@]4(C)C3CC[C@@]21C (stereo partly drawn)	-8
CC(=O)O[C@@H]1c2c(ccc3ccc(=O)oc23)OC(C)(C)[C@@H]1OC(=O)CC(C)C	-2
OC(CCCN1CCCCC1)(c1ccccc1)c1ccccc1	0
CC(C)Nc1ncccn1	11&25
CC(=O)OC(C)C[N+](C)(C)C (stereo not drawn)	8
